# Vaccinia Venus: vaccinia inhibition (Venus reporter); hit rate 0.46% among 330,000; Vaccinia virus Venus reporter expression, fluorescence; Potency, µM (highest dose often 36.5 µM), for inactives: at the highest dose activity change, negative = inhibition, actives largely listed as inhibitors; AID 720580; active means well fitted inhibition curve with a large enough effect; inconclusive means small, poorly fitted or top-dose-only effect; inactive means no such curve, though single readings can be large or run the other way; tested in A549 cells; also: nearly all actives have a fitted effect of over 30% in size; inactives centre near -10
# VACV mCherry inh: inhibitors of vaccinia virus infection (mCherry reporter signal). Vaccinia virus mCherry reporter infection, fluorescence; about a quarter of the inactives have no number. Potency, µM (doses to about 36.5 µM), for the others: at the top dose activity change, negative = inhibition, usual class: inhibitors. hit rate 0.63% among 310,000; active = well fitted inhibition curve with a large enough effect; inconclusive = small, poorly fitted or top-dose-only effect; inactive = no such curve, though single readings can be large or run the other way; tested in A549 cells; also: nearly all actives have a fitted effect of over 35% in size; inactives centre near -10
# The depositor's hits bear a star; i = inactive; ? = inconclusive; . = no result given; [ ] = remark or other dose. % is scaled to controls: 0 for no effect and ±100 for the full control effect; potency is read from the fitted curve at half-maximal effect. No enrichment for hits (roughly 0.87% active in at least one column).
# The first 4 compounds (preview)
SMILES,Vaccinia Venus,VACV mCherry inh
O=S(=O)(NCC1CCCO1)c1ccc(S(=O)(=O)N(Cc2ccc(F)cc2)Cc2ccco2)cc1 (stereo not drawn),-19%,-19%
COc1ccc(-c2cc(C(=O)NC3CCCC3)no2)cc1,-8%,-13%
COCCNC(=O)c1n[nH]c2ccccc12,-15%,-15%
O=C(CN1CCN(Cc2ccccc2)CC1)Nc1cccc(Br)c1,-3%,i

# The listing, from the start:
SMILES,Vaccinia Venus,VACV mCherry inh
O=S(=O)(NCC1CCCO1)c1ccc(S(=O)(=O)N(Cc2ccc(F)cc2)Cc2ccco2)cc1 (stereo not drawn),-19%,-19%
COc1ccc(-c2cc(C(=O)NC3CCCC3)no2)cc1,-8%,-13%
COCCNC(=O)c1n[nH]c2ccccc12,-15%,-15%
O=C(CN1CCN(Cc2ccccc2)CC1)Nc1cccc(Br)c1,-3%,i
O=C1c2ccc(Cl)cc2S(=O)(=O)c2cccc(C(=O)N3CCC(Cc4ccccc4)CC3)c21,-24%,?
Cc1nn(Cc2ccc(F)cc2)c2sc(C(=O)Nc3ccc(N4CCOCC4)cc3N3CCOCC3)cc12,?,?
O=C(CSc1nccn1Cc1ccc(F)cc1)NCc1ccco1,-13%,-2%
CC(=O)Nc1ccccc1OCc1cc(=O)n2c3c(sc2n1)CCCC3,-2%,-10%
CCN1C(=O)C(CC(=O)Nc2ccc(OC)cc2)N(Cc2cccnc2)C1=S (stereo not drawn),-12%,-14%
Cc1ccnc(NC(=O)c2oc3ccccc3c2C)c1,-9%,i
Cc1cccc(N2C(=NC(=O)c3ccccc3)SC3CS(=O)(=O)CC32)c1 (stereo not drawn),-2%,-11%
COc1ccc(-c2ccc3c(c2)CN(C(=O)C(C)(C)C)Cc2cnnn2-3)cc1,-7%,23%

# Single values from above:
# Value for `O=C(CN1CCN(Cc2ccccc2)CC1)Nc1cccc(Br)c1` in Vaccinia Venus: -3%
# Value for `Cc1ccnc(NC(=O)c2oc3ccccc3c2C)c1` in Vaccinia Venus: -9%
# Value for `O=S(=O)(NCC1CCCO1)c1ccc(S(=O)(=O)N(Cc2ccc(F)cc2)Cc2ccco2)cc1` (stereo not drawn) in Vaccinia Venus: -19%
# Value for `COCCNC(=O)c1n[nH]c2ccccc12` in Vaccinia Venus: -15%

# Further results follow.
SMILES,Vaccinia Venus,VACV mCherry inh
O=[N+]([O-])c1cc(-c2nc3nc4ccccc4nc3n2CCc2ccccc2)cc([N+](=O)[O-])c1,-12%,-8%
COc1cccc2cc(C(=O)N3CCN(C/C=C/c4ccccc4)CC3)c(=O)oc12,-11%,0%
c1ccc(CCc2ccncc2)cc1,-15%,i
Cc1cccc(CN2CCN(c3ccc(Cl)cc3)CC2)c1,-5%,-8%
CCCS(=O)(=O)N1CCc2ccc(NC(=O)c3ccccc3Cl)cc2C1,-22%,-5%
CCC(=O)N1CCc2cc(S(=O)(=O)CCC(=O)NCc3cccs3)ccc21,-27%,?
O=[N+]([O-])c1ccc(COc2cccnc2)cc1,6%,-4%
C=CCN1C(=O)C(O)(CC(=O)c2ccco2)c2cc(Br)ccc21 (stereo not drawn),-7%,-24%
CSC[C@H]1CN(c2ccc(Br)cc2)C(=O)[C@@H]1CC(=O)Nc1ccc(Br)cc1,-4%,9%
CCOC(=O)N1CCN(C(=O)c2ccc3c(=O)n(Cc4ccc(Cl)cc4)c(=S)[nH]c3c2)CC1,-31%,?
C=CCn1c(-c2sccc2C)n[nH]c1=S,-5%,0%
Cc1cc(C)c(S(=O)(=O)c2ccccc2C)c(Cl)n1,-4%,i
Cc1ccc(S(=O)(=O)NC(=O)Nc2cc(C(C)(C)C)on2)cc1,-16%,-10%
Cc1cc(Nc2ccccc2C)n2nc(Cc3ccc(Cl)cc3)nc2n1,3%,-2%
COc1ccc(OCC(=O)NNC(=O)CCc2ccccc2)cc1,-6%,i
Cc1ccc(C)c(OCC(O)CN2C(C)CCCC2C)c1 (stereo not drawn),-16%,-25%
COCCCNC(=O)CSc1nc2cc(OC)c(OC)cc2c2nc(-c3ccccc3)nn12,-6%,-10%
CCCNC(=O)C1(C)CCCN(CCOc2ccccc2)C1 (stereo not drawn),-10%,i
CCN1CCN(c2ncc3c(n2)CCN(Cc2ccc(OC)c(OC)c2)C3)CC1,0%,-4%
Cc1cccc(NC(=O)C2CCN(C(=O)NCc3ccccc3)CC2)c1C,0%,-15%
CCOC(=O)c1c(C)[nH]c(C)c1C(=O)CN1C(=O)NC(CC(C)C)C1=O (stereo not drawn),-16%,-25%
CN1CCN(C(=O)C(=O)Nc2c3c(nn2-c2ccc(Cl)cc2)CSC3)CC1,-1%,1%
O=C(Nc1ccc(Br)cc1)C1CC(O)CN1C(=O)Oc1ccccc1 (stereo not drawn),-15%,-13%
CN=c1scc(C)n1/N=C/c1cc(Br)c(O)c(OC)c1,-13%,i
CS(=O)(=O)CC(=O)Nc1ccc2nc3n(c(=O)c2c1)CCCCC3,-15%,i
OCCC1CN(Cc2cc(F)ccc2-n2cccn2)CCN1C1CCCC1 (stereo not drawn),0%[7.34 µM],i[7.34 µM]
CCc1ccc(NC(=O)c2sc3nc(C)c(Cl)c(C)c3c2NC(=O)c2ccccc2)cc1,-4%,5%
Cc1ccc(OCC(=O)N/N=C2\CC(=O)CC(C)(C)C2)c(Br)c1,15%,i
C[C@H](NC(N)=O)C(=O)N1CCN(S(=O)(=O)c2ccc3ccccc3c2)CC1,0%,-2%
CCC(=O)Nc1ccccc1Oc1ccccc1,-9%,-7%
c1ccc(CSc2ccc(-c3cccnc3)nn2)cc1,1%,-2%
CCCCCCSc1ccc([C@@H]2[C@@H]3C(=O)N(CC)C(=O)[C@@H]3[C@]3(C(=O)OC)CCCCN23)cc1,-21%,i
Cc1ccc(C)c(NC(=O)N2CCC(CN3CCOCC3)CC2)c1,-16%,-21%
Cc1cccc(C)c1NC(=O)c1sc(-n2nc(C)c(Cc3ccc4c(c3)OCO4)c2C)nc1C,-4%,-13%
O=C(CSc1nc2ccccc2c(=O)[nH]1)Nc1ccc(N2CCOCC2)cc1,2%,-10%
Nc1nonc1-c1nc2ccccc2n1CC(=O)Nc1cccc(C(F)(F)F)c1,-8%,-12%
CC(=O)Nc1ccc(/C(C)=N/NC(=O)c2ccc(CN3CCOCC3)cc2)cc1,-10%,-6%
CC(C)OC(=O)CC1C(=O)NCCN1C(=S)NC(=O)CCc1ccccc1 (stereo not drawn),-6%,-3%
O=C(O)c1ccc(Nc2ncnc3c2cnn3Cc2ccccc2)cc1,-15%,0%
Cc1ccc(NC(=S)NCC2CCCO2)c(OC(F)F)c1 (stereo not drawn),-6%,-12%
CCOC(=O)Cc1nnc(NC(=O)COc2ccc(C)cc2)s1,-20%,.
COc1cccc(/C=C2\SC(=O)N(CCC(=O)NNC(=O)c3ccccc3Cl)C2=O)c1,8%,-5%
C[C@@H](C(=O)Nc1ccc2ccccc2c1)[C@@H]1C[C@@]1(C)[C@@H](N)c1ccccc1,-18%,-23%
CSc1ncccc1C(=O)N1CCC(C)(C(=O)O)C1 (stereo not drawn),-4%,0%
Cc1nc(/N=C(\N)N(C)C)[nH]c(=O)c1C,-13%,2%
CC(C)c1ccc(/C=C(\C#N)c2nc(-c3ccc(O)cc3)cs2)cc1,?,-23%
CC(C)OC(=O)/C(=C\c1ccc2c(c1)c1ccccc1n2C)NC(=O)c1ccccc1,?,.
COc1ccc(NC2=NCC(=O)N2c2ccccc2F)cc1,-2%,-11%

# In the list so far, these contain a COOH group:
SMILES,Vaccinia Venus,VACV mCherry inh
O=C(O)c1ccc(Nc2ncnc3c2cnn3Cc2ccccc2)cc1,-15%,0%
CSc1ncccc1C(=O)N1CCC(C)(C(=O)O)C1 (stereo not drawn),-4%,0%

# 3 structures already listed, arranged by count of non-hydrogen atoms, lowest first:
SMILES,Vaccinia Venus,VACV mCherry inh
COCCNC(=O)c1n[nH]c2ccccc12,-15%,-15%
Cc1cc(C)c(S(=O)(=O)c2ccccc2C)c(Cl)n1,-4%,i
CC(C)OC(=O)CC1C(=O)NCCN1C(=S)NC(=O)CCc1ccccc1 (stereo not drawn),-6%,-3%

# Next entries.
SMILES,Vaccinia Venus,VACV mCherry inh
O=C(NCC1CCCO1)c1ccc(S(=O)(=O)N2CCCCC2)cc1 (stereo not drawn),-10%,-9%
Cc1cc(=O)[nH]c2nnc(SCc3cccc(F)c3)n12,-4%,i
O=C(CCC1CCCCC1)Nc1ccc(S(=O)(=O)Nc2nccs2)cc1,6%,i
CC1(C)CC(=O)C/C(=N\NC(=O)CCc2ccc(S(=O)(=O)N3CCOCC3)cc2)C1,-10%,-15%
CSc1ccccc1NC(=O)c1cccnc1,-10%,-10%
CCn1c(SCC(=O)Nc2nccs2)nnc1-c1ccc(S(=O)(=O)N2CCCCCC2)cc1,-22%,-18%
CCCN(CCC)C(=O)Cn1c(=O)n(-c2ccc(C)c(C)c2)c(=O)c2c3c(sc21)CCCCC3,-17%,-19%
Cc1ccc(NC(=O)CSc2nc(-c3cccs3)nc3cc(=O)[nH]n23)cc1C,-15%,-17%
COc1ccc(-c2cc(C(F)(F)F)nc(SCC(=O)Nc3cc(C)on3)n2)cc1OC,-7%,.
Cc1cc(C)n2c(=O)[nH]nc2c1,-1%,-12%
O=C(CNC(=O)c1ccco1)NCc1ccc2c(c1)OCO2,-4%,-23%
CCOC(=O)C1CCN(C(=O)c2ccc(Cl)c(S(=O)(=O)N3CCOCC3)c2)CC1,-13%,-18%
Cc1ccc(-c2cc(C(=O)O)c3cc(Br)ccc3n2)o1,0%,i
S=c1[nH]cc(-c2ccccc2)n1-c1cccc(Cl)c1,-20%,-2%
COc1ccc(CCNC(N)=S)cc1OC,-4%,-10%
COc1ccc([N+](=O)[O-])cc1NC(=O)C(C)N(C)Cc1cccc(OC)c1OC (stereo not drawn),-17%,-26%
COc1ccc(C)cc1NC(=O)C(OC(=O)C1CC1)c1ccccc1 (stereo not drawn),-16%,-25%
c1ccc2cc(OCc3nc4ccccc4[nH]3)ccc2c1,-25%,-8%
CCCn1c(CCC(=O)Nc2ccc(OCC)cc2)nc2cccnc21,-6%,8%
CCOc1ccc(CNC(=O)Nc2ccccc2)cc1,-14%,-11%
COc1ccc(CC(=O)Nc2ccc3nc(SC)sc3c2)cc1OC,-13%,i
COC(=O)/C=C1\S/C(=N\N=C\CC(=O)OC)NC1=O,-13%[7.34 µM],i[7.34 µM]
C=CCOCCN1C(=O)C2C(c3ccccc3)C=CC(c3ccccc3)C2C1=O (stereo not drawn),-18%,?
Cc1ccc(NC(=O)CSc2nc3c(oc4ccccc43)c(=O)n2Cc2ccco2)cc1,-6%,-10%
O=C(CC1(O)C(=O)N(CCc2ccccc2)c2ccccc21)c1ccco1 (stereo not drawn),-3%,-16%
Cc1ccc(C)n1-c1sc2c(c1C#N)CCC(C)C2 (stereo not drawn),-17%,-1%
C/C(=N/NC(=O)c1ccoc1C)c1cccc(NC(=O)C2CC2)c1,-13%,-24%
CCS(=O)(=O)N1Cc2ccccc2CC1C(=O)Nc1nnc(SCc2ccc(F)cc2)s1 (stereo not drawn),-7%,-1%
CCOC(=O)c1c(NC(=O)CCS(=O)(=O)c2ccccc2)sc2c1CC(C)(C)NC2(C)C,-11%,-13%
COC(=O)c1ccc(NC(=O)C(C)N2Cc3ccccc3C2=O)cc1 (stereo not drawn),-12%,-21%

# High-throughput results: PubChem, National Center for Advancing Translational Sciences (NCATS)
